FGF22 binding: binders of human FGF22 protein, primary screen, FGF22 synaptogenesis inhibitor project, biophysical, thermal shift, single point; Fibroblast growth factor 22 (Homo sapiens), Q9HCT0; recombinant FGF22 thermal shift, SYPRO orange fluorescence; percent of sucrose octasulfate shift, DMSO zero; calls only at 9.99 µM; hit rate 1.5% among 340,000;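 active = melting point raised past a set limit in the mean and every replicate; three in four hits are not shown here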
B2AR ag: beta2AR agonists driving receptor internalization, primary screen, cell-based, FAP fluorogen, flow cytometry; Beta-2 adrenergic receptor (Homo sapiens), P07550; hit rate 0.43% among 340,000; response, % (concentration not given with the values); Am2.2-beta2AR cells; reference of the scale not given here;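 active = response above a set limit, near 3 SD of response in nonfluorescent compounds, cut at about 42% in these data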;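 note: stock transfer was 100 nL into about 11 µL; a reference agonist was the positive control; negative values mostly stem from fluorescent compounds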
Target sequence (P07550 whole entry, looked up): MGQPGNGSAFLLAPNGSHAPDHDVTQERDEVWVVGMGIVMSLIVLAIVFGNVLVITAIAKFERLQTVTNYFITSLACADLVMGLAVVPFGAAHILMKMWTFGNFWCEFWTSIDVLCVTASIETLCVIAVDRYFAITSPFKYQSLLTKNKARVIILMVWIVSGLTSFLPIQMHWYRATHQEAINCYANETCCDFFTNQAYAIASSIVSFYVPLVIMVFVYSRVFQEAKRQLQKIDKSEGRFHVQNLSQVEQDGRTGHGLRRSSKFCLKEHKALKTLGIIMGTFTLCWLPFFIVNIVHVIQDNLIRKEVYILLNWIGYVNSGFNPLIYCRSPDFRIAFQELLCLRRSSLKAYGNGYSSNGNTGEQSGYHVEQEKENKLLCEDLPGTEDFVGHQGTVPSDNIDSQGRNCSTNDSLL
Ecoli rRNA inh: reduced GFP signal of wild-type E. coli, primary screen, bacterial rRNA inhibitor project, GFP/RFP fluorescence, OD600, single point; hit rate 1.6% among 350,000; E. coli WT GFP vs humanized-ribosome RFP mutants, 24 h; stronger effect = lower value; DMSO median 0, no signal -100; GFP signal change (wild-type ribosome), % (no concentration beside the values); AID 720706, 2013;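 active = significant combined selectivity score with lowered wild-type GFP, culture density cut under 30%, mutant RFP and density less affected; inactive = any of these conditions unmet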; note: one replicate is shown; some compounds called inactive have numbers as strong as hits
ALR inh: inhibitors of human ALR sulfhydryl oxidase, primary screen, biochemical, H2O2 detection, HRP-luminol luminescence, single point; FAD-linked sulfhydryl oxidase ALR (Homo sapiens), P55789; purified ALR, DTT oxidation; inhibition, % (no concentration beside the values); hit rate 3.8% among 290,000; AID 485317, 2010;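 active = mean and each replicate at 75% or more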;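 note: stock transfer was 7.5 nL into about 7.5 µL; 0% = neutral wells and 100% = wells with inactivated enzyme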
Target sequence (P55789 whole entry, looked up): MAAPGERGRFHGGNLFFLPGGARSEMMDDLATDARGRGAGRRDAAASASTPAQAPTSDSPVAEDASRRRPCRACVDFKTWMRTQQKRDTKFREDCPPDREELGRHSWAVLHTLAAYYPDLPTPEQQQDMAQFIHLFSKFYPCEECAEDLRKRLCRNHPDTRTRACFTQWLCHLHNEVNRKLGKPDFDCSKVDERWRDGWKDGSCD
UCH37 DUB inh: inhibitors of human UCH37 deubiquitinase, primary screen, biochemical, Ub-AMC cleavage, fluorescence. purified proteasome/UCH37. inhibition, % (test concentration not listed). hit rate 0.33% among 330,000. Ubiquitin carboxyl-terminal hydrolase isozyme L5 (Homo sapiens), Q9Y5K5;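 active = mean of two replicates above 20%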;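 note: 0% = compound-free wells with enzyme and 100% = wells lacking proteasome; stock transfer was 100 nL into about 20 µL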
Target sequence (Q9Y5K5 whole entry, looked up): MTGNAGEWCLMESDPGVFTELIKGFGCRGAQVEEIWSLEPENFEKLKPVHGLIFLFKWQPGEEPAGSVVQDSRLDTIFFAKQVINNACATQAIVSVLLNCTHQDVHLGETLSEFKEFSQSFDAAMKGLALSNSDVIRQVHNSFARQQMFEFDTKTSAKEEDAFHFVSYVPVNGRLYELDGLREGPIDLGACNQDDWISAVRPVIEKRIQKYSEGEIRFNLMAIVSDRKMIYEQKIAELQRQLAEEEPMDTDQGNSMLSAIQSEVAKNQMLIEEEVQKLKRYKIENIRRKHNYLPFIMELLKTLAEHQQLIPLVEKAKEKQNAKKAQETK
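Test system – human UCH37 enzyme supplied as purified proteasome complex · Incubation – 30 min preincubation with enzyme, 25 min cleavage at room temperature · Detection – AMC fluorescence from Ub-AMC cleavage, excitation 355 nm, emission 460 nm · Benchmarks – no-proteasome wells (full inhibition) and compound-free wells (no inhibition)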
HNF4A DNA FP: change in binding of human HNF4A to DNA, primary screen, biochemical, fluorescence polarization, FITC-DNA; Hepatocyte nuclear factor 4-alpha (Homo sapiens), P41235; 1 h; activity change, % at 10 µM; hit rate 0.3% among 360,000; AID 1224865, 2016; in the data active = activity change above about 30%, passing the limit was not always enough;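 note: controls were the assay level and a saturating level of protein; the project sought stronger binding though the title names inhibitors; some compounds called inactive have numbers as strong as hits; positive values seem to mean higher polarization but the record does not say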
Ecoli growth: E. coli growth inhibition, primary screen, OD600; Escherichia coli growth, 23 h; stronger effect = lower value; OD600 absorbance (test concentration not listed); hit rate 0.21% among 330,000; AID 1053175, 2014;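 active = OD600 absorbance below the run mean of sample wells minus 3.6 SD, in any replicate, cut at about 0.56 in these data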;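 note: stock transfer was 300 nL into about 60 µL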
Ecoli rRNA inh OD600: also measured in Ecoli rRNA inh; calls as there; OD600 change, %; measured here: OD600 growth;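 optical density of the mix in the first replicate; 0 = DMSO median and -100 = no signal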
Ecoli rRNA inh RFP: also measured in Ecoli rRNA inh; calls as there; RFP signal change, %; measured here: RFP humanized mutant strains;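 first replicate; 0 = DMSO median and -100 = no signal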
* marks the source's active call; other numbers are inactive results; i = inactive; / = not tested or not shown; & = joins results of further samples.

SMILES	FGF22 binding	B2AR ag	Ecoli rRNA inh	Ecoli rRNA inh OD600	Ecoli rRNA inh RFP	ALR inh	UCH37 DUB inh	HNF4A DNA FP	Ecoli growth
CC1=N/C(=C/c2ccco2)C(=O)O1	i	3	18	7	6.8	/	3.1	-29	0.73
O=C(COC(=O)c1ccc2c(=O)n3c(nc2c1)CCC3)NC1CCS(=O)(=O)C1 (stereo not drawn)	i	-1	5	-4	-0.4	-5	-38	-2.0	0.68
N/C(=N\OC(=O)Nc1ccccc1)c1ccno1	i	-2	4	7	2.1	-1	1.7	2.5	0.67
C=C1C(=O)OC2C1CCC(C)C1C=CC(=O)C12C (stereo not drawn)	i	5	12	0	2.5	/	/	0.8	/
COc1cc(OC)c(C(=O)Nc2cccnc2)cc1OC	i	-2	13	31	8.2	-11	4.3	-1.5	0.64
CN1CCN(C(=O)Cn2c(C(F)(F)F)nc3ccccc32)CC1	/	3	/	/	/	2	0.4	-3.2	0.67
Clc1ccccc1OCc1nc(-c2ccc(Br)o2)no1	i	1	-18	-38	-0.8	-6	5.2	-2.4	0.71
O=C(c1ccccc1)N(CCN1CCOCC1)C1(C(=O)Nc2ccccc2)CCCCC1	/	10	/	/	/	-11	2.1	-1.7	0.77
COC(=O)c1ccc(C23CC4(C2)[C@H](CN(Cc2ccc(C(F)(F)F)cc2)[C@@H]4c2ccccc2)C3c2ccc(Cl)nc2)cc1 (stereo partly drawn)	i	/	7	9	2.6	-22	-0.5	/	/
O=S(=O)(Nc1cccc(-c2ccc(N3CCCCCC3)nn2)c1)c1ccccc1Cl	i	-3	-6	-8	5.9	-5	2.7	3.7	0.69

Four records drawn at random from the list so far, as already listed:
SMILES	FGF22 binding	B2AR ag	Ecoli rRNA inh	Ecoli rRNA inh OD600	Ecoli rRNA inh RFP	ALR inh	UCH37 DUB inh	HNF4A DNA FP	Ecoli growth
Clc1ccccc1OCc1nc(-c2ccc(Br)o2)no1	i	1	-18	-38	-0.8	-6	5.2	-2.4	0.71
COC(=O)c1ccc(C23CC4(C2)[C@H](CN(Cc2ccc(C(F)(F)F)cc2)[C@@H]4c2ccccc2)C3c2ccc(Cl)nc2)cc1 (stereo partly drawn)	i	/	7	9	2.6	-22	-0.5	/	/
O=S(=O)(Nc1cccc(-c2ccc(N3CCCCCC3)nn2)c1)c1ccccc1Cl	i	-3	-6	-8	5.9	-5	2.7	3.7	0.69
CN1CCN(C(=O)Cn2c(C(F)(F)F)nc3ccccc32)CC1	/	3	/	/	/	2	0.4	-3.2	0.67

The listing continues:
SMILES	FGF22 binding	B2AR ag	Ecoli rRNA inh	Ecoli rRNA inh OD600	Ecoli rRNA inh RFP	ALR inh	UCH37 DUB inh	HNF4A DNA FP	Ecoli growth
O=C(COc1cccnc1[N+](=O)[O-])Nc1cccc(S(=O)(=O)N2CCCCC2)c1	i	-9	11	5	-1.9	/	3.1	2.9	0.66
COc1ccc(N2CCN(C(=S)NCCc3ccccc3)CC2)cc1	/	0	/	/	/	11	1.6	1.7	0.71
NS(=O)(=O)c1cccc(NC(=O)c2cccc(N3C(=O)c4ccccc4C3=O)c2)c1	i	-7	7	15	1.4	1	3.7	4.5	0.71
CCN1CCN(C(=O)/C=C\C(=O)O)CC1	/	-2	/	/	/	4	0.6	1.1	/
C=C1C2(C(=O)NCc3ccco3)CCC(C2)C1(C)C (stereo not drawn)	/	-4	/	/	/	-4	-0.5	-4.0	0.73
Cc1cccc(-n2c(C)cc(C=C3C(=O)c4ccccc4C3=O)c2C)c1	/	5	/	/	/	-7	1.8	-69	0.65
O=C(COC(=O)c1ccc(CNS(=O)(=O)c2ccc(F)c(Cl)c2)cc1)NC1CCCCCCC1	/	2	/	/	/	-8	-2.3	-1.4	0.7
CCN(C(=O)COC(=O)CCCOc1ccc(Cl)cc1C)c1c(N)n(Cc2ccccc2)c(=O)[nH]c1=O	i	24	6	6	0.5	/	3.6	1.5	0.64
Cc1ccc(-c2nc3ccccn3c2Nc2ccccc2)o1	i	-4	-10	-15	-3.4	99*	-337	-0.8	0.67
Cc1ccc(NC(=O)COc2cccnc2[N+](=O)[O-])cc1S(=O)(=O)N1CCCCC1	i	-178	/	/	/	/	5.1	1.5	0.72
CCOc1ccccc1NC(=O)C(OC(=O)c1ccc(NC(=O)CC#N)cc1)c1ccccc1 (stereo not drawn)	i	10	-4	7	7.4	/	-13	12	0.63
O=C(CCS(=O)(=O)c1ccccc1)NC12CC3CC(CC(C3)C1)C2	/	1	/	/	/	5	0.3	-4.5	0.69
CCc1cc2c(=O)[nH]c(-c3ccccn3)nc2s1	i	5	-52	-77	-23	-3	-24	-3.1	0.61
COc1cc(C(=O)O/N=C2\CCCc3c2ccc(OC)c3[N+](=O)[O-])cc(OC)c1OC	/	1	/	/	/	-22	/	12	/
O=C(NCCC(=O)N1CCCCC1)c1ccc(Br)cc1	i	0	7	3	-3.0	-5	1.2	-2.6	0.72
CCn1c(SCC#N)nc2ccccc2c1=O	i	-3	-2	5	-4.5	-24	2.5	-1.2	0.71
CN(C(=O)c1ccc(OC2CCN(CCc3ccccc3)CC2)cc1)C1CCCCC1	i	-7	-10	-5	12	-10	0.0	1.5	0.68
C=CCOc1ccccc1/C=N/NC(=O)c1ccc(Cl)cc1Cl	/	-17	/	/	/	6	/	2.1	/
O=[N+]([O-])c1cc(Cl)cc(/C=N/NC(=S)Nc2cc(S(=O)(=O)N3CCOCC3)ccc2Cl)c1O	i	7	-5	1	0.5	10	/	-7.9	/
CCc1nc2ccc(C(=O)N(C)CCCN(C)C)cn2c1N(C)C(=O)C1CCCCC1	i	/	5	9	8.8	/	/	5.0	/
COc1ccc(CCNS(=O)(=O)c2cc(/C=C/C(=O)O)ccc2C)cc1OC	i	-2	10	5	1.3	-1	1.7	-0.7	0.71
C=CCn1c(SCCOc2ccc(OC)cc2)nnc1C(C)NC(=O)Cc1ccc(OC)cc1 (stereo not drawn)	/	8	/	/	/	-4	2.9	3.4	0.68
C[C@H](CO)N1C[C@H](C)[C@@H](CN(C)CC2CCCCC2)Oc2c(NS(=O)(=O)c3ccc(F)cc3)cccc2C1=O	i	-2	-1&3	7&5	-1.7&2.2	-1	5.4	2.5	/
CCOC(=O)c1ccc(CSc2nnc(N)s2)cc1	/	8	/	/	/	-4	0.6	2.0	0.76
O=C(CSc1ccccc1Cl)c1ccco1	/	1	/	/	/	10	-0.2	-3.0	0.67
COc1ccc(NC(=O)C2CCC2)cc1S(=O)(=O)N1CCOCC1	i	0	/	/	/	0	-1.6	-0.2	0.69
COc1ccc(C(=O)O/N=C(\N)c2ccccc2)c(OC)c1	i	1	0	6	-4.5	-2	/	-0.9	/
COc1cccc(CC2(CO)CCCN(Cc3cn[nH]c3-c3ccccc3)C2)c1 (stereo not drawn)	i	2	6	-4	1.0	-2	-0.2	-0.6	0.66
Cn1c(-c2ccccc2)cnc1NCc1cc2c(cc1[N+](=O)[O-])OCO2	/	0	-12	-14	-5.3	98*	3.8	-5.1	0.61
O=C(Nc1ccc(N2CCOCC2)cc1)c1cccc(S(=O)(=O)N2CCC(Cc3ccccc3)CC2)c1	/	4	/	/	/	-9	4.3	-1.1	0.79
Cc1cccc(NS(=O)(=O)c2cccs2)n1	i	7	11	1	-0.8	-15	-13	4.0	0.68
O=C(NC1=NCCS1)c1cc(-c2cccs2)nc2ccccc12	i	-6	-7	0	4.2	-2	-171	1.8	0.67
CCOc1ccc(N2C(=O)S/C(=C\c3ccc(O)c(OCC)c3)C2=O)cc1	i	12	4	0	6.0	2	-0.3	15	0.71
CC(=O)Nc1sc2c(c1C(c1ccccn1)N1CCCC1)CCCC2 (stereo not drawn)	i	6	9	5	2.3	-18	0.5	-1.2	0.69
Cc1[nH]c2ccccc2c1/C=C(/C#N)C(=O)NC(C)C	/	7	-5	5	-3.2	-14	11	2.6	0.68
CCOC(=O)c1c(C)sc2c1N(C(=O)CCl)c1cc(Cl)ccc1S2	/	18	/	/	/	10	4.1	0.2	0.77
CN(C)CCCNC(=O)COc1ccc(Br)cc1Cl	i	-4	/	/	/	-3	2.6	2.7	0.7
COc1ccc(C(=O)N/C(=C/c2ccccc2F)C(=O)NCCN2CCOCC2)cc1OC	i	-8	13	10	-1.3	10	2.3	1.4	0.69
O=C(CC[C@H]1O[C@@H](n2ccc(=O)[nH]c2=O)[C@H](O)[C@@H]1O)N[C@H](Cc1ccccc1)C(=O)NCc1ccco1	i	/	26	2	5.1	/	/	-1.6	/
COc1ccccc1N1CCN(C2CCCN(C(=O)CCc3ccccn3)C2)CC1 (stereo not drawn)	i	-3	11	12	1.0	27	-2.3	-3.2	0.7
O=C(O)c1cnn2c1NC(c1cccs1)CC2C(F)(F)F (stereo not drawn)	/	-2	/	/	/	-20	1.3	0.1	0.69
CC(C)N1CCN(Cc2cnc(-c3ccccc3)s2)CC1CCO (stereo not drawn)	/	-7	17	9	-0.9	/	3.2	2.2	0.68
O=C(NCc1ccc(Cl)cc1)C1CCC(CNc2c(N3CCCC3)c(=O)c2=O)CC1 (stereo not drawn)	i	3	15	6	0.7	1	3.8	-2.0	0.73
CN(C)/C=N/c1cc(=O)[nH]c(=O)n1CC1CC1	i	-1	8	7	0.7	-4	/	0.4	/
COc1ccc(NC(=O)COC(=O)CNC(=O)C2CCCCC2)cc1	i	0	7	0	-0.6	/	-1.0	-2.5	0.72
CC(=O)c1ccc(NS(=O)(=O)c2cccc(C)c2)cc1	/	3	/	/	/	/	7.9	1.6	0.72
Cc1cc(C(=O)OCC(=O)NC(=O)NC(C)(C)C)c(C)o1	/	-1	/	/	/	8	3.2	-0.1	0.7
COC(=O)c1ccc(CN(C)S(=O)(=O)c2ccc(C)cc2)o1	/	4	/	/	/	-5	1.0	1.2	0.65
Cc1ccc(-n2c(-c3cn(C)nc3C)n[nH]c2=S)cc1	/	/	/	/	/	23	4.2	/	0.65
COc1cc(C2C(C(=O)c3cc4ccccc4o3)=C(O)C(=O)N2CCN2CCOCC2)ccc1OCCC(C)C (stereo not drawn)	i	0	-2	0	1.0	/	7.1	11	0.71

(continued)
SMILES	FGF22 binding	B2AR ag	Ecoli rRNA inh	Ecoli rRNA inh OD600	Ecoli rRNA inh RFP	ALR inh	UCH37 DUB inh	HNF4A DNA FP	Ecoli growth
CC(C)c1nnc(NC(=O)CCC(=O)N2CCN(Cc3ccccc3)CC2)s1	/	4	3	0	-3.0	5	0.0	0.7	0.71
CCc1nn(CC(=O)NCCCN2CCN(C)CC2)c(=O)c2cc3sccc3n12	i	-2	5	10	-2.8	-2	-0.1	-1.8	0.65
Cn1c(SCC(=O)c2ccc(F)cc2)nnc1-c1cnccn1	/	-14	/	/	/	13	-0.6	0.0	0.67
CCOc1cc(/C=C2\C(=O)N(CCc3ccc(OC)c(OC)c3)C(C)=C2C(=O)OC)ccc1O	/	6	/	/	/	2	7.2	3.0	0.68
O=C(NCc1ccco1)C1Cc2ccccc2CN1S(=O)(=O)c1ccccc1F (stereo not drawn)	/	8	/	/	/	-6	2.8	-11	0.7
O=C(COc1ccccc1)Nc1ccc2[nH]ncc2c1	i	-1	0	2	-0.3	-20	2.5	1.1	0.67
O=C(c1ccccc1)N(C(=O)c1ccccc1)c1ncnc2c1C(c1ccccc1)c1c(ccc3ccccc13)O2 (stereo not drawn)	i	2	10	13	-2.1	-5	4.3	3.8	0.74

Compound activity from PubChem BioAssay.

These rows are one share of the data; count on the stated rates, not on these rows.
